# Polio RdRp inh = poliovirus RdRp elongation inhibitors, primary screen, biochemical, fluorescence polarization, total intensity; poliovirus polymerase elongation; hits give low values; % elongation, % (compound at 16.7 µg/mL); hit rate 0.66% among 150,000; AID 588519, 2011; in the data active = % elongation below about 90%; also: some results filed as inactive read as strong as hits
# Mtb MbtI inh = MbtI salicylate synthase inhibitors, primary screen, biochemical, fluorescence intensity; P9WFX0; purified MbtI enzyme, fluorescence intensity read-out; inhibition, %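 (about 17 µg/mL by stock and volumes)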; hit rate 0.89% among 100,000; AID 493033, 2011;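 active = above 50% in both replicates, above 80% if mildly self-fluorescent; inactive = the rest, strongly fluorescent compounds included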;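 also: 0% = mean of negative and 100% = mean of positive controls; one replicate is shown; some compounds called inactive have numbers as strong as hits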
# Target sequence (P9WFX0 whole entry, looked up): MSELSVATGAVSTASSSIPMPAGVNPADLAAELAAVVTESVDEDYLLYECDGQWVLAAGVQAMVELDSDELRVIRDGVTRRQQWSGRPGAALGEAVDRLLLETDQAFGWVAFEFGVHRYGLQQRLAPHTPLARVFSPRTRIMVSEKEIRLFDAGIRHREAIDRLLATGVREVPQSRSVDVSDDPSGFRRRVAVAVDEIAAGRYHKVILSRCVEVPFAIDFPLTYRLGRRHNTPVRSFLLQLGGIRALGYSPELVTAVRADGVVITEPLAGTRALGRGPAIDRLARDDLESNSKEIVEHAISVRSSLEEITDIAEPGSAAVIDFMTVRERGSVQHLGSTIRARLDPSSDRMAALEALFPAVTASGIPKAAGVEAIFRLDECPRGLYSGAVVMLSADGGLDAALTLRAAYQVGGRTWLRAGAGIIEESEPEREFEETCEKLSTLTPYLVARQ
# Mtb MenB inh = M. tuberculosis MenB inhibitors, primary screen, biochemical, absorbance; 1,4-dihydroxy-2-naphthoyl-CoA synthase (Mycobacterium tuberculosis (strain ATCC 25618 / …; MenB enzyme assay, absorbance read-out; some hits fall short of the stated cut; inhibition, %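 (about 12 µg/mL by stock and volumes)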; hit rate 0.43% among 100,000;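 active = mean of two replicates above 30%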;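 also: 0% = no compound and 100% = wells with inactive enzyme; the first replicate is given; strong numbers were not always called active; inactives centre near -10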
# Target sequence (P9WNP5 whole entry, looked up): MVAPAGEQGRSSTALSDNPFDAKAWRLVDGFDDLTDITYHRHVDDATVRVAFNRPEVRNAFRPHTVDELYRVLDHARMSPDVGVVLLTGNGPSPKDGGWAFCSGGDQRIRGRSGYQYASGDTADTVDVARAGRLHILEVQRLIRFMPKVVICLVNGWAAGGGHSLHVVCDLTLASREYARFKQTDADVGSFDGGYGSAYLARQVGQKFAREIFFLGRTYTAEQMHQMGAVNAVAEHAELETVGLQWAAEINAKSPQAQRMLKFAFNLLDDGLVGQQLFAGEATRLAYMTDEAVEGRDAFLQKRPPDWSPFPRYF
# Polio RdRp inh intensity = recorded beside Polio RdRp inh, whose call it bears; % elongation; measured here: total intensity read-out; formula for this scale not given here;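 total fluorescence in place of polarization; lower means less elongation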
# An asterisk follows results filed as active; i = inactive; x = not tested or not shown.
SMILES,Polio RdRp inh,Polio RdRp inh intensity,Mtb MbtI inh,Mtb MenB inh
CC(C)(C)NC(=O)CN1CCN(C(=S)Nc2ccccc2F)CC1,107.0,108.0,-5.8,-24.6
Cc1ccc(Cl)c(Nc2ccccc2C(=O)O)c1Cl,102.0,101.0,9.8,-3.9
c1coc(CCC2=NCCn3cccc32)c1,105.0,117.0,x,-4.9
O=C(NCCN1CCCCCC1)c1ccc2c(c1)ncn2C1CCCCC1,101.0,98.0,7.6,-10.4
C=CCN(CC=C)C(=O)c1ccc(NC(=O)CC)cc1,101.0,103.0,-4.6,-9.3
O=C(O)CCCn1c(C(F)(F)F)nc2ccccc21,101.0,99.0,-0.3,-38.9
CN(C)c1ccc(/C=N/NC(=O)C2=CCN(Cc3ccccc3)CC2)cc1,99.0,100.0,-31.4,-124.5
O=C1Cc2cc(S(=O)(=O)NC3CCCC3)ccc2N1,100.0,103.0,-4.0,-15.5
Cc1cc(C(=O)COC(=O)c2ccc3c(c2)NC(=O)CS3)c(C)n1Cc1cccs1,104.0,106.0,17.7,-22.4
CCN(CC)c1ccc2cc(C(N)=O)c(=Nc3ccc(F)cc3)oc2c1,104.0,104.0,0.5,-49.8
CC1CCCCN1S(=O)(=O)c1ccc(C(=O)Nc2nnc(-c3cccs3)o2)cc1 (stereo unspecified),100.0,105.0,9.8,-21.4
COC(=O)Cc1c(C)c2ccc(OCC(=O)N(C)C)c(C)c2oc1=O,100.0,100.0,173.2,-5.9
OC(c1ccccc1)(c1ccccc1)C(F)(F)F,104.0,99.0,1.4,x
COC(=O)C1C(=O)C2=C(CC1C)NC(=O)CC2c1cccc(C)c1 (stereo unspecified),102.0,101.0,-1.1,3.3
Nn1cnc2sccc2c1=O,101.0,97.0,1.2,-0.9
CC(Nc1ccc(Oc2ccccc2)cc1)C(=O)N1CCCC1 (stereo unspecified),101.0,99.0,7.8,-1.9
N#CCNC(=O)C(Sc1ccccc1)c1ccccc1 (stereo unspecified),98.0,101.0,-3.2,1.6
CCN(c1ccccc1)C1SC(=O)N(c2ccccc2)C1=O (stereo unspecified),102.0,100.0,-0.1,-10.3
CCOC(=O)c1nnn2c3ccccc3c(=O)n(Cc3ccc(Cl)cc3)c12,108.0,108.0,-8.8,15.9
COc1ccccc1C1=NC(c2ccccc2)CN1c1ccccc1 (stereo unspecified),104.0,109.0,i,-34.5
COC(=O)C(C)n1cnc2scc(-c3ccc(OC)cc3)c2c1=O (stereo unspecified),109.0,106.0,x,-15.2
O=S(=O)(NC1CCCC1)c1ccc(S(=O)(=O)N2CCN(c3ncccn3)CC2)cc1,103.0,103.0,-18.1,-2.9
C=CCOC(=O)C1=C(C)NC(=O)C12C(C(=O)OC)=C(N)Oc1ccccc12 (stereo unspecified),100.0,100.0,-1.9,-11.7
Cc1ccc(S(=O)(=O)N2CCCCC2)cc1-n1c(C)ccc1C,100.0,104.0,-4.5,x
COc1cccc([C@@H]2CCN(CC(=O)Nc3cc(Cl)ccc3OC)C[C@H]2O)c1,102.0,103.0,-4.8,-20.0
O=C(Nc1cccnc1)c1ccc2c(c1)[nH]c(=O)n2CCc1ccccc1,100.0,103.0,13.1,1.4
O=C(COC(=O)c1ccc2ccccc2n1)NC(c1ccccc1)c1ccccc1,105.0,116.0,-11.1,x
O=S(=O)(c1ccccc1)c1nnn2c1nc(Nc1ccccc1)c1sccc12,105.0,101.0,36.0,-24.8
COc1ccccc1NC(=O)COc1ccc(Oc2ccccc2)cc1,103.0,96.0,-6.2,x
O=C(COc1ccc(Nc2ccccc2)cc1)OCC(=O)N1CCCCC1,92.0,97.0,-12.1,-0.2
Cc1ccc(N(C)S(=O)(=O)c2ccc(-c3cc(C(F)(F)F)no3)s2)cc1,100.0,102.0,-2.4,-1.6
CSC1=NC2(C)CCCCC2c2c1ccc1ccccc21 (stereo unspecified),101.0,96.0,x,-22.7
Cc1cc(C(=O)COc2ccc(-c3nnco3)cc2)c(C)n1-c1ccc2c(c1)OCCO2,101.0,109.0,7.8,-19.6
Fc1ccccc1OCCCCSc1ncccn1,101.0,103.0,5.8,-2.9
CCc1cccc(NC(=S)N(CCC(C)C)C(C)c2cccs2)c1 (stereo unspecified),102.0,108.0,-13.1,-29.7
C=CCOn1c(=O)c(-c2ccc(OC)c(OC)c2)[n+]([O-])c2ccccc21,93.0,109.0,77.9*,-43.3
CCOc1ccc2ccccc2c1CNc1nnnn1CC,102.0,102.0,-6.1,-2.3
Nc1cccc(Cl)c1O,101.0,99.0,57.0*,-7.4
COc1ccc(C2c3sc(=O)[nH]c3SCC2/C=N/NC(N)=S)cc1 (stereo unspecified),99.0,103.0,20.8,-30.3
CC1CCN(C(=O)c2cccc3c2-c2ccccc2C3=O)CC1,99.0,102.0,2.0,4.2

# A few values from the list:
# For Polio RdRp inh, `CC1CCN(C(=O)c2cccc3c2-c2ccccc2C3=O)CC1` is listed with 99.0
# For Mtb MenB inh, `CSC1=NC2(C)CCCCC2c2c1ccc1ccccc21` (stereo unspecified) is listed with -22.7
# For Polio RdRp inh intensity, `COC(=O)C(C)n1cnc2scc(-c3ccc(OC)cc3)c2c1=O` (stereo unspecified) is listed with 106.0
# For Polio RdRp inh, `COc1ccccc1NC(=O)COc1ccc(Oc2ccccc2)cc1` is listed with 103.0

# The list continues:
SMILES,Polio RdRp inh,Polio RdRp inh intensity,Mtb MbtI inh,Mtb MenB inh
COc1cccc(CNc2nc3ccccc3n2CCN2CCOCC2)c1OC,110.0,112.0,x,-15.7
Cc1nc(CC(=O)OCc2nnc(-c3c(-c4ccccc4)noc3C)o2)cs1,109.0,117.0,-8.2,-1.5
O=C(CSc1nc2ccccc2o1)OCc1ccccc1,98.0,97.0,x,1.0
Cc1noc(C)c1CN1CCC(c2nc3ccccc3s2)CC1,106.0,110.0,-12.7,-28.7
CCC(=O)c1cc(Cl)cc(Cl)c1O,102.0,109.0,-4.7,x
Cc1nc(SCC(=O)N2c3ccccc3CCc3ccccc32)n[nH]1,103.0,101.0,-0.6,9.3
COc1cccc(CN2COc3ccc4c(C)cc(=O)oc4c3C2)c1,103.0,99.0,113.9,-24.2
CCSc1nc2ccccc2s1,102.0,102.0,-0.4,x
O=C(c1cn(-c2ccccc2)nc1-c1cccc(Cl)c1)N1CCOCC1,100.0,100.0,-14.0,-2.0
Cc1ccc(C(CC(=O)O)c2ccccc2)c(O)c1 (stereo unspecified),103.0,103.0,-16.9,-4.4
COC(=O)c1ccc2c(=O)n(CCCCCC(=O)NC3CCCCC3)c(=O)[nH]c2c1,103.0,102.0,21.2,-14.3
O=C(Nc1nc2ccccc2[nH]1)Nc1ccccc1F,105.0,115.0,-5.4,-26.9
Cc1nc2cc(-c3ccccc3)nn2c(C)c1CC(=O)NCc1ccccc1,102.0,109.0,-2.7,-7.7
COC(=O)Cn1ncc(N2CC(C)OC(C)C2)c(Cl)c1=O (stereo unspecified),100.0,106.0,-12.0,-4.1
CC(C)NC(=O)c1cc(C(=O)c2cc(Br)ccc2O)coc1=N,103.0,103.0,5.6,-4.7
O=C(CSc1ccc(-c2ccncc2)nn1)NCCc1ccccc1,102.0,100.0,-15.5,-15.0
Cc1cc(C(F)(F)F)c(C#N)c(SCC(=O)C(C)(C)C)n1,106.0,144.0,4.2,9.8
COC(=O)c1ccc2c3c(cccc13)CC2,105.0,105.0,x,-0.6
Cc1ccc(NC(=O)c2ccc(Br)o2)cc1C,100.0,103.0,-6.8,-36.6
COc1cc(NC(=O)c2ccc(Br)o2)c(C(=O)O)cc1OC,103.0,102.0,1.2,2.9
O=C(COc1ccccc1)N=Nc1c(O)[nH]c2ccccc12,100.0,102.0,-8.3,-66.8
O=C(COC(=O)c1ccc(NC(=O)c2ccc(Cl)cc2)cc1)c1ccccc1,99.0,99.0,-4.1,x
CCOC(=O)[C@]1(C#N)[C@@H]2C=CC(C(N)=O)=CN2[C@@H](C(N)=O)[C@@H]1c1ccc(Cl)cc1,107.0,99.0,x,-39.9
O=C(O)c1ccc(CSc2nnnn2C2CCCCC2)cc1,102.0,109.0,x,2.4
COc1ccc2ncc(C(=O)NC3CCCC3)c(Cl)c2c1,102.0,97.0,x,-4.9
Cc1cc(C)nc(SCC(=O)NC2=NC(=O)C(C)S2)n1 (stereo unspecified),99.0,102.0,-0.5,19.0
COc1cc(C2N(C(C)=O)N=C(NC(C)=O)N2C(C)=O)cc(OC)c1OC (stereo unspecified),105.0,104.0,13.6,-9.6
CNC(C)c1ccco1 (stereo unspecified),102.0,102.0,5.9,24.2
Fc1ccccc1OCCBr,100.0,101.0,-6.3,x
Cc1sc2nc(SC/C=C/c3ccccc3)nc(N)c2c1C,101.0,106.0,12.8,-13.9
Nc1ccc(N2CCCC2)cc1,97.0,85.0,106.5,-72.9
COC(=O)c1ccccc1NC(=O)c1ccc(NC(=O)c2ccco2)cc1,101.0,104.0,-19.3,-3.7
O=C(Cn1cc(/C=N/n2cnnc2)c2ccccc21)Nc1ccc2c(c1)OCO2,100.0,108.0,-3.7,-12.7
CC1CC(=O)Nc2ccccc2N1C(=O)c1ccc(F)cc1F (stereo unspecified),98.0,93.0,-8.0,-3.4
O=C(Nc1ccc2c(c1)OCO2)c1cncc(NS(=O)(=O)c2ccccc2)c1,99.0,102.0,-6.0,-13.4
O=C(CSC1=NCCCN1)N1CCCCC1,104.0,105.0,-0.7,x
COC(=O)c1sc(S(C)=O)c(-c2ccon2)c1C (stereo unspecified),103.0,95.0,7.5,-12.1
C=CCc1ccccc1OCc1ccc(C(=O)O)cc1,100.0,92.0,10.2,-4.6
CC1(C)C(=O)OC(/C=C\c2ccccc2)C(C)(C)C1=O (stereo unspecified),99.0,103.0,-7.0,-23.0
CCSc1cc(C)c(C#N)c2nc3ccccc3n12,105.0,103.0,-4.9,-54.5

# Record cards (already shown).
# O=C(CSc1ccc(-c2ccncc2)nn1)NCCc1ccccc1 is listed as Polio RdRp inh: 102.0; Polio RdRp inh intensity: 100.0; Mtb MbtI inh: -15.5; Mtb MenB inh: -15.0
# COC(=O)c1ccc2c(=O)n(CCCCCC(=O)NC3CCCCC3)c(=O)[nH]c2c1 is listed as Polio RdRp inh: 103.0; Polio RdRp inh intensity: 102.0; Mtb MbtI inh: 21.2; Mtb MenB inh: -14.3

# (continued)
SMILES,Polio RdRp inh,Polio RdRp inh intensity,Mtb MbtI inh,Mtb MenB inh
CC1Oc2ccccc2OC1C(=O)Nc1ccccc1 (stereo unspecified),102.0,100.0,-19.4,-13.8
CC(C)C(Nc1ccccc1)N1C(=O)CCC1=O (stereo unspecified),102.0,102.0,-9.6,-32.1
Nc1c(C(=O)N2CCCCC2)sc2nc3c(cc12)CCC3,100.0,96.0,-13.5,-16.3
c1ccc2sc(-c3ccc4c(c3)OCCO4)nc2c1,105.0,98.0,101.5,2.7
Nn1c(SCc2ccccc2Cl)nnc(CCC(=O)O)c1=O,103.0,110.0,0.4,-26.2
CCOC(=O)N1C/C(=C\c2ccccc2)C(=O)/C(=C/c2ccccc2)C1,101.0,102.0,x,-4.8
COc1ccccc1CNC(=O)C1COc2ccccc2O1 (stereo unspecified),106.0,109.0,x,-8.8
CC1CCCC(C)N1CC(C)(C)NS(=O)(=O)c1ccccc1 (stereo unspecified),101.0,101.0,-1.4,x
CC(C)C(NC(=O)c1ccccc1)C(=O)NCc1ccccn1 (stereo unspecified),100.0,103.0,-4.0,8.9
COc1cc2c(cc1NC(=O)Cc1ccccc1)oc1ccccc12,99.0,102.0,i,-41.8
COc1cc(OC)cc(C(=O)Nc2ncn[nH]2)c1,104.0,102.0,-4.2,-7.6
CCOC(=O)Cn1c(=O)oc2cc(S(=O)(=O)NCCOC)ccc21,101.0,104.0,-5.5,-3.2
COCCNC(=O)c1ccc2c(c1)sc1nc(-c3ccccc3)cn12,106.0,102.0,-8.0,-27.5
CC1(c2ccccc2)OC(=O)C(=Cc2ccc(O)cc2)C(=O)O1 (stereo unspecified),101.0,102.0,23.9,-17.7
O=C(COC(=O)c1cccc(S(=O)(=O)N2CCCC2)c1)c1ccccc1,107.0,106.0,-13.5,-6.7
CCc1nc(C)cn1S(=O)(=O)c1cc(OC)ccc1OC,102.0,107.0,-0.6,8.4
Cc1ccccc1Nc1nc(N)nc(COC(=O)[C@@H](NC(=O)c2ccco2)C(C)C)n1,101.0,100.0,4.6,-3.9
O=C(c1cc(NS(=O)(=O)c2ccccc2)ccn1)N1CCCCC1,99.0,98.0,0.0,9.3
O=C(c1cccs1)N1CCN(S(=O)(=O)/C=C/c2ccccc2)CC1,104.0,113.0,-11.4,-8.9
C=CCN(C(=O)C1CC=CCC1)c1ccccc1 (stereo unspecified),106.0,98.0,x,-20.9
Cc1ccc(NC(=O)/C(C#N)=C\Nc2cccc(O)c2)cc1,100.0,105.0,8.4,-19.7

# Outcome played no part in choosing rows (roughly 2% active in at least one column).
